Screens (PubChem)
Rango complex inh: qHTS Assay for Inhibitors of Rango (Ran-regulated importin-beta cargo) - Importin beta complex formation; Importin subunit beta-1 (Homo sapiens), Q14974; Rango CFP/YFP FRET sensor + importin beta, 45 min; Potency, µM (highest dose often 92.2 µM), inactives show at the top dose inhibition of complex formation; 340,000 tested, 0.031% active; active = rising FRET ratio curve, often small or poorly fitted; inconclusive = mostly compound fluorescence or quenching in the first reads; inactive = flat curves in all reads;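 also: potency is read from the fitted curve at half-maximal effect; 0% = DMSO wells and 100% = buffer wells lacking importin beta; nearly all actives have a fitted effect of over 15% in size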
Target sequence (Q14974 whole entry, looked up): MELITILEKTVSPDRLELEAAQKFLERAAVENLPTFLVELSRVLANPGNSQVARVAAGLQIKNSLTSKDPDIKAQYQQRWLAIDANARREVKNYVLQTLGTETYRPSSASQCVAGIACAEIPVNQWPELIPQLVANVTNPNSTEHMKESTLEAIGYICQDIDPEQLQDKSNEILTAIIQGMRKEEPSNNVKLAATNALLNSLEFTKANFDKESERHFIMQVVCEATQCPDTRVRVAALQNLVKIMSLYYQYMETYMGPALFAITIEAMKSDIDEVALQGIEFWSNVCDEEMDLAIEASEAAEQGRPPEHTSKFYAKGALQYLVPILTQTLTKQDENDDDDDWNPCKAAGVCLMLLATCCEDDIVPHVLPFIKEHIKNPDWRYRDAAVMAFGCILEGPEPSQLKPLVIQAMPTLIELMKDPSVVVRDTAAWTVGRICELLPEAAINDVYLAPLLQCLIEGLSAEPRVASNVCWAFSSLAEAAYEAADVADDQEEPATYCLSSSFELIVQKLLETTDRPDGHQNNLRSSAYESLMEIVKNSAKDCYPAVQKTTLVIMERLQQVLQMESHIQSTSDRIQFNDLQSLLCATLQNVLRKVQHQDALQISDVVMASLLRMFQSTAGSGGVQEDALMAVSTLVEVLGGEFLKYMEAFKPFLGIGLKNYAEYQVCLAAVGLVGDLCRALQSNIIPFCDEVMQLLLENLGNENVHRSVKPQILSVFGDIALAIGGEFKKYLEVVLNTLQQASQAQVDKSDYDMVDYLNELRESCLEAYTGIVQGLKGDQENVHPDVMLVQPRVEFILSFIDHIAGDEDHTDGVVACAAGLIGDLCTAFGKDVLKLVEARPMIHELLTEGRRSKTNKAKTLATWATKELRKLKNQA
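Inhibition scored from the CFP 486 nm/YFP 530 nm FRET ratio 45 min after adding 0.125 microM importin beta to 50 nM Rango biosensor preincubated 5 min with compound (room temperature, PBS with DTT, Tween-20, BSA). No-importin wells as positive control.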
GLA inh pH 4.5: qHTS Assay for Inhibitors of Human alpha-Galactosidase at pH 4.5; purified enzyme, 4-MU-alpha-Gal fluorescence, pH 4.5; activity change, negative = inhibition, % at 105 µM; 230,000 tested, under 10 active; Alpha-galactosidase A (Homo sapiens), P06280; inconclusive = small, poorly fitted or top-dose-only inhibition, or a rising curve; inactive = flat fitted curve, though single readings scatter; no compound was filed as active;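 also: 0% = full activity with enzyme and -100% = basal without enzyme; dose as in the result columns while the protocol names 77 µM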
Rango release inh: qHTS Assay for Inhibitors of RanGTP induced Rango (Ran-regulated importin-beta cargo) - Importin beta complex dissociation; Biochemical FRET Rango-importin beta, RanGTP-induced dissociation; Potency, µM (top dose mostly 46.1 µM), for inactives: top-dose activity change, negative = inhibition; 340,000 tested, 0.071% active; Snurportin-1 (Homo sapiens) + GTP-binding nuclear protein Ran (Homo sapiens) + Importin …; AID 540253, 2011; active means falling FRET ratio curve, often poorly fitted, with flat reads before Ran was added; inconclusive means other falling curves, or compound fluorescence or quenching; inactive means flat or rising ratio curve;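 also: potency is read from the fitted curve at half-maximal effect; % of control where 0% means no effect; nearly all actives have a fitted effect of over 45% in size; -100% = wells without RanGTP and RCC1; the record marks most hits as doubtful in a second field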
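Rango (0.1 uM)–importin beta (0.25 uM) complex; RanGTP-RCC1 trigger; 45 min RT; CFP/YFP FRET read.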
miR-21 reporter: qHTS Assay for Modulators of miRNAs and/orActivators of miR-21; HeLa miR-21 FLuc reporter, luciferase, 48 h; AID 2288, 2010; Potency, µM (titrated, usually from 38.3 µM), without a hit: top-dose reporter change, positive = more light; 340,000 tested, under 10 active; active = well fitted rising curve with a large enough effect; inconclusive = small, poorly fitted or top-dose-only effect; inactive = no such curve, though single readings can be large or run the other way;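 also: % of control where 0% means no effect; miR-21 action dims this reporter so a rising signal means less miR-21 action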
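HeLa miR-21-FLuc reporter line, endogenous miR-21; 2000 cells/well in DMEM/10% FBS; compound titration up to ~40uM final, 48 h, 37 degree Celsius; luciferase detection reagent, 15 min lysis, CCD luminescence.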
Starred values were filed as active, the others as inactive; ? = inconclusive; . = not tested or not shown; & = joins results of further samples; [ ] = another dose, or the depositor's remark. These rows are one share of the data; rates above refer to the full screens.

SMILES	Rango complex inh	GLA inh pH 4.5	Rango release inh	miR-21 reporter
Cc1nn(-c2ccccc2)c(C)c1NC(=O)COc1ccc2ccccc2c1	-0.9%	1	1%	26%
COc1cccc(N=C2C(=O)N3CCCc4cccc2c43)c1	0.3%	0	5%	-24%
COC(=O)c1ccc(OCC(=O)Nc2ccsc2C(=O)OC)cc1	0.3%	3	8%	3%
Cc1cc(OCC(=O)N2CCCC2)cc(C)c1Cl	-1.5%	-5	10%	-11%
CCOc1ccc2nc(SC3CC(=O)N(c4cccc(OC)c4)C3=O)sc2c1 (centres undefined)	0.0%	5	-10%	-17%
COc1cc(/C(C#N)=C/c2ccccc2)c([N+](=O)[O-])cc1OC	?	-10	-5%	-2%
Cc1ccc(C)c(N2CCN(C(=O)CCS(=O)(=O)c3ccc4c(c3)CCN4C(=O)C3CC3)CC2)c1	-1.6%	.	11%	2%
c1ccc2cc(CSCc3nc4ccccc4[nH]3)ccc2c1	-0.1%	-11	16%	-11%
O=C1C(Cl)=C(N2CCOCC2)C(=O)N1c1cccc(C(F)(F)F)c1	-0.3%	.	0%	13%
C=CCNC(=O)c1cccc2c1C(=O)c1ccc(N3CCOCC3)cc1S2(=O)=O	14%	.	-6%	.
CC(C)c1nc(NCc2ccccc2)c(C#N)c2c1CCCC2	-0.3%	2	-23%	0%
CCN(CC(=O)Nc1cc(Cl)ccc1C)C(=O)c1oc2ccc(OC)cc2c1C	0.3%	.	17%	.
CCc1ccc(OCc2nnc(SCCN3CCOCC3)n2CC)cc1	3.7%	5	-16%	-1%
Cc1ccccc1NC(=S)N1CCC(NC(=O)c2ccco2)CC1	-4.9%	-5	-12%	-2%
O=c1cc(/N=C/c2coc3c(ccc4ccccc43)c2=O)[nH]c(=S)[nH]1	1.1%	-12	-13%	-5%
CC(=O)N1CCOc2ccc(S(=O)(=O)Nc3cccc(C)n3)cc21	-0.5%	.	1%	2%
Cc1ccc(/C=N/c2sc3c(c2C#N)CCCCC3)o1	-2.8%	2	-4%	-19%
CCOc1ccc(-c2nnc(-c3ccco3)o2)cc1	0.5%	2	-8%	0%
CCN(CC)CCN1C(=O)C2C3c4ccccc4C(c4ccccc43)C2C1=O (centres undefined)	0.9%	-5	-24%	-1%
Cc1cccc(NC(=O)Nc2cccc3ccccc23)c1	-0.5%	.	-8%	-3%
Cc1ccc(OCc2nnc(SCC(=O)NCc3ccco3)n2C)cc1	0.5%	-6	-6%	0%
CC(C)c1ccccc1NC(=O)C1CN(S(=O)(=O)c2ccccc2)CCN1S(=O)(=O)c1ccccc1 (centres undefined)	-0.6%	1	0%	-2%
CC(=O)Nc1ccc(SCC(=O)c2cc(C)n(C)c2C)cc1	-0.4%	-7	4%	-31%
COc1ccc(C2CC(=O)N(CCCN(C)CCc3ccc(OC)c(OC)c3)C2)cc1 (centres undefined)	-2.6%	6	-7%	0%

Five entries picked at random from those above:
SMILES	Rango complex inh	GLA inh pH 4.5	Rango release inh	miR-21 reporter
Cc1cc(OCC(=O)N2CCCC2)cc(C)c1Cl	-1.5%	-5	10%	-11%
CCN(CC(=O)Nc1cc(Cl)ccc1C)C(=O)c1oc2ccc(OC)cc2c1C	0.3%	.	17%	.
CCN(CC)CCN1C(=O)C2C3c4ccccc4C(c4ccccc43)C2C1=O (centres undefined)	0.9%	-5	-24%	-1%
CCOc1ccc(-c2nnc(-c3ccco3)o2)cc1	0.5%	2	-8%	0%
CC(=O)N1CCOc2ccc(S(=O)(=O)Nc3cccc(C)n3)cc21	-0.5%	.	1%	2%

Additional compounds follow:
SMILES	Rango complex inh	GLA inh pH 4.5	Rango release inh	miR-21 reporter
Cc1nnnn1-c1cccc(C(=O)O)c1	-4.7%	3	12%	-1%
O=C(CNC(=O)c1nc[nH]c1C(=O)N1CCN(c2ccccc2)CC1)OCc1ccccc1	2.5%	.	11%	0%
COc1ccc(OC)c(-n2nnnc2SCC(=O)Nc2cc(C)ccc2OC)c1	-0.8%	-6	6%	-5%
CC(NC(=O)CCNS(=O)(=O)c1ccc2c(c1)c(=O)n(C)c(=O)n2C)c1ccccc1 (centres undefined)	0.1%	-1	-7%	-6%
Cc1ccc(-c2csc3nc[nH]c(=O)c23)cc1C	-3.0%	.	-4%	-9%
O=C1COc2ccc(C(=O)COc3ccc(Cl)cc3Br)cc2N1	-0.1%	.	-4%	.
Cc1ccc(N(C(=O)CS(=O)CC(=O)Nc2ccc(F)cc2)C(C(=O)NC2CCCCC2)c2ccco2)cc1 (centres undefined)	5.2%	6	-9%	-3%
COCCN1CCN(C(=O)C2CCC(=O)N(Cc3ccccc3F)C2)CC1 (centres undefined)	0.1%	.	-3%	-1%
CC(C)C(NC(=O)c1ccc2c(c1)OCO2)C(=O)N/N=C/c1cccs1 (centres undefined)	5.3%	-4	3%	-1%
O=C(N/N=C/C=C/c1ccc2c(c1)OCO2)C(O)c1ccccc1 (centres undefined)	2.9%	-2	33%	-11%
C/C(=N\NC(=O)Cc1csc(N2CCOCC2)n1)c1ccccc1	0.6%	5	1%	2%
O=C(O)c1ccc(C2NCC(c3ccccc3Cl)c3c2[nH]c2ccccc32)cc1 (centres undefined)	-3.8%	7	1%	-10%
C=CCN1C(=O)C(O)(CC(=O)c2ccc(N)cc2)c2ccccc21 (centres undefined)	-1.6%	-6	-5%	-2%
O=C(C[n+]1ccccc1)N/N=C/c1ccc(Cl)c(Cl)c1	0.2%	.	1%	-2%
CC(=O)N1CCC(N(CCN2CCOCC2)C(=O)Nc2ccc(Cl)c(Cl)c2)CC1	3.1%	.	13%	.
COc1ccccc1NS(=O)(=O)c1ccc(C)c(C(=O)NCC2CCCO2)c1 (centres undefined)	2.9%	0	3%	-11%
CC1CC(C)CN(C(=O)COC(=O)COc2ccccc2C#N)C1 (centres undefined)	-1.3%	.	11%	.
O=C(Nc1nc2ccccc2s1)c1ccccc1	2.9%	6	3%	7%
CCOc1ccccc1NC(=O)N1CCN(S(C)(=O)=O)CC1	-4.0%	-1	7%	-1%
CCOC(=O)COn1c(=O)c(-c2ccc(Cl)cc2)[n+]([O-])c2ccccc21	1.6%	.	0%	-11%
COc1ccc(C(=O)/C=C/c2ccc(OC)cc2OC)c(O)c1	1.8%	-10	?	-71%
CC(=O)Nc1ccc(C(=O)NNC(=O)C2C3CCCCC32)cc1 (centres undefined)	-4.7%	.	12%	-8%
COc1ccc(N2CCN(C(=O)C(=O)c3c(C)[nH]c4ccccc34)CC2)cc1	-0.6%	.	6%	-3%
Cc1ccc(N=CNc2ccc(C)cc2C)c(C)c1	1.4%	-3	-3%	0%

Looked up above:
GLA inh pH 4.5, `Cc1ccccc1NC(=S)N1CCC(NC(=O)c2ccco2)CC1` is entered as -5
Rango release inh, `O=C(O)c1ccc(C2NCC(c3ccccc3Cl)c3c2[nH]c2ccccc32)cc1` (centres undefined) is entered as 1%

(next part)
SMILES	Rango complex inh	GLA inh pH 4.5	Rango release inh	miR-21 reporter
Cc1cc(NC(=O)CCN2C(=O)/C(=C/c3ccccc3Cl)SC2=S)no1	-1.2%	0	8%	0%
COC(=O)/C=C(\C)N=Nc1c(O)[nH]c2ccccc12	?	-7	?	-26%
COC(=O)c1ccc(NC(=O)c2ccc(N(C)S(C)(=O)=O)cc2)cc1	6.2%	0	-3%	15%
COc1ccc(CNC(=O)CN(C(=O)c2snc(C(N)=O)c2N)c2ccccc2F)cc1	0.8%	.	1%	2%
O=C(Cc1cccc2ccccc12)NNC(=O)c1cccs1	0.6%	-8	4%	-9%
COc1cc2c(-c3ccc4cc[nH]c4c3)c(-c3ccc(C#N)cc3)oc(=O)c2cc1OC	?	.	-15%	.
O=[N+]([O-])/C=C1/CCCCCN1	-1.7%	-6	-13%	-2%
O=C(/C=C\c1ccco1)Nc1nc(-c2ccccc2)cs1	0.3%	3	1%	-41%
O=C1c2cccc3c(Nc4ccccc4Cl)c([N+](=O)[O-])cc(c23)C(=O)N1CCO	5.3%	-8	20%	2%
Cc1ccc(C(=O)NNC(=O)c2csc(N3CCOCC3)n2)s1	-1.8%	.	0%	.
Cc1cc(C)c(NS(=O)(=O)c2ccc3c(c2)NC(=O)CC(=O)N3)c(C)c1	0.2%	-3	10%	-2%
CC(C)CC1C(C#N)=C(N)OC2=C1C(=O)CC(c1ccccc1)C2 (centres undefined)	?	-15	3%	2%
CCN(C(=O)COC(=O)CSc1ccc(C)c(C)c1)C1CCS(=O)(=O)C1 (centres undefined)	-1.6%	.	2%	0%
CCN(CC(=O)Nc1sc2c(c1C#N)CCCC2)CC(=O)NC1CCS(=O)(=O)C1 (centres undefined)	0.9%	-10	-1%	-11%
O=C(CC1C(=O)NCCN1C(=O)Nc1ccccc1)Nc1ccc2c(c1)OCCO2 (centres undefined)	13%	-5	10%	-3%
COc1ccc2nc(SCC(=O)NC(C)c3ccccc3)[nH]c2c1 (centres undefined)	-4.6%	.	2%	.
Cc1cc(-c2ccccc2)nc2cc(C(=O)NCc3ccco3)nn12	1.1%	11	-4%	1%
COCCN(C(=S)Nc1ccccc1OC)C1CCN(C(C)=O)CC1	-3.3%	4	6%	-1%
COc1ccc(C2NC(c3ccc(OC)cc3OC)C(C)C(=O)C2C)c(OC)c1 (centres undefined)	-0.8%	6	5%	-3%
O=C(CSc1nnc(-c2cccnc2)o1)c1cc2ccccc2oc1=O	?	-3	-19%	-10%
O=C(O)CCOc1ccc2c(c1)OCCO2	0.6%	2	-4%	-2%
O=C(Nc1ncccn1)c1ccc(C(F)(F)F)cc1	-4.7%	-4	15%	-51%
Cc1ccc2c(c1)NC(=O)c1cc([N+](=O)[O-])ccc1O2	-3.6%	-2	-2%	1%
Cc1cccc([C@@H]2[C@@H]3C(=O)N(Cc4ccccc4)C(=O)[C@@H]3[C@]3(C)C(=O)N(c4ccc(C(F)(F)F)cc4)C(=O)N23)c1	-5.4%	.	13%	24%
COc1ccc(CCNC(=O)Cn2nc([N+](=O)[O-])c(Br)c2C)cc1OC	3.1%	-4	2%	-7%
CC(=O)Nc1cccc(C(=O)N2CCN(S(=O)(=O)c3ccc(C4CCCCC4)cc3)CC2)c1	-0.2%	.	15%	.
O=C(O)c1cc2nc(-c3ccccc3)cc(-c3ccccc3)n2n1	?	4	-19%	-13%
CC(=O)Nc1ccc(NC(=O)CSc2nc3nc(C)cc(C)c3c(=O)[nH]2)cc1	-2.7%	.	8%	11%
CCN(CC)CCSc1nnc(Nc2ccccc2)n1-c1ccccc1	-1.0%	4	4%	-5%
COc1ccc(/C=N/Nc2ccccn2)cc1O	0.8%	-4	-5%	-68%
O=C(O)C1CCCCC1C(=O)Nc1ccc2c(c1)CCC2 (centres undefined)	4.0%	-3	1%	-13%
CCc1ccc(NC(=O)CC2C(=O)NCCN2C(=O)c2ccccc2OC)cc1 (centres undefined)	3.9%	.	0%	-3%&-6%
CCCCCCCCCCCCCCCC[N+](C)(C)CCN(Cc1ccc(OC)cc1)c1ncccn1	65µM*	1	6%	.
CC(C)Sc1nc2ccsc2c(=O)[nH]1	-1.6%	4	1%	-5%
Cn1c(Sc2nc3ccccc3n2C)nc2ccccc21	0.0%	2	12%	-1%
O=C(Nc1ccccc1F)C1C2C=CC3(O2)C1C(=O)N(c1cccnc1)C3C(=O)NC1CCCCC1 (centres undefined)	-0.4%	1	7%	0%
CCSc1ccccc1C(=O)N1CCC2(CC1)CC(=O)c1ccccc1O2	-0.1%	.	?	.
Cc1ccc(/C=N/Nc2nncn2N)cc1	-1.5%	.	-2%	-1%
COc1cc(NC(=O)C2CCCN(S(=O)(=O)c3cnc[nH]3)C2)cc(OC)c1 (centres undefined)	-1.7%	-1	-12%	-6%
COc1ccc(NC(=O)CSc2nc(-c3ccc(C)cc3)cc(C(F)(F)F)c2C#N)cc1	1.9%	0	-9%	-5%
Cc1ccc(S(=O)(=O)c2cc3ccccc3oc2=O)cc1	-1.3%	-6[21.1 µM]	-8%	0%
CCCCOC(=O)C1C2CCC(O2)C1C(=O)OCC (centres undefined)	4.6%	.	2%	.
